A1 inhib – blocks A1 activity; MEF A1-2A-BIM cells, caspase-Glo luminescence, 3 h; percent of clofoctol signal, DMSO as zero; caspase activation, % (test concentration not listed); 21,000 tested, 0.51% active; AID 2241;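 active = most replicate scores above 10, or exactly half above 10 with mean activity above 10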;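 also: effector caspase 3 and 7 activity cleaving a DEVD luciferin substrate; 50 nL library stock added to about 30 µL; numbers are from one replicate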
BJeLR viab HTS – compounds reducing viability of BJeLR cells; BJeLR fibroblasts viability, CellTiterGlo ATP luminescence, 48 h; HRASV12, hTERT and SV40 LT/ST transformed; viability loss activity score, % (test concentration not listed); 30,000 tested, 0.64% active; AID 2275; in the data active = viability loss activity score above about 50%; about a fifth of its hits are not listed in these tables;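 also: higher score means fewer live cells and less ATP luminescence; stock transfer was 50 or 100 nL into about 30 µL; 0% = vehicle wells and 100% = a reference killing control; one replicate is shown; the record names a cut of 85%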
The depositor's hits bear a star; . = no result given. Not all compounds are listed; rates above refer to the full screens.

SMILES | A1 inhib | BJeLR viab HTS
CCn1c(=O)cc(OCC(=O)N(C)c2ccccc2F)c2ccccc21 | . | -3.1
N=C(N)SCc1nc(N)nc(N2CCCCC2)n1 | 0.3 | 2.5
CCOC(=O)c1[nH]cnc1C(=O)Nc1ccc(C)cc1 | -0.2 | -0.3
CN(C)C(=O)Nc1ccccc1 | 0.6 | 0.0
CCc1cccc(C(C)C)c1NS(=O)(=O)c1ccc(C)cc1 | 0.7 | 6.3
CCOC(=O)c1ccc2[nH]c(C(=O)OCC)c(CCC(=O)O)c2c1 | 0.6 | -3.6
Cc1ccc2c(c1)c1nc3ccccc3nc1n2Cc1ccccc1 | . | 2.4
Cc1noc(C)c1NC(=O)N(C)C[C@@H]1Oc2c(NC(=O)C3CC3)cccc2C(=O)N([C@H](C)CO)C[C@H]1C | . | -0.5
COC(=O)Cn1c(SCc2ccccc2)nc2ccccc21 | -2.2 | -0.4
CCSc1nc2c(c(=O)[nH]1)C(c1ccncc1)C(C(=O)OC)=C(C)N2 (stereo unspecified) | 0.8 | 0.8
CNC[C@H]1Oc2ccc(NS(=O)(=O)c3ccc(OC)cc3)cc2C(=O)N([C@@H](C)CO)C[C@H]1C | 0.0 | 9.9
C[C@H]1CN([C@@H](C)CO)C(=O)c2cccc(NC(=O)Nc3ccc(F)cc3)c2O[C@@H]1CN(C)Cc1ccc(Cl)c(Cl)c1 | . | 1.8
O=C(NC1CCCCC1NC(=O)c1ccccc1Cl)c1ccccc1Cl (stereo unspecified) | 0.0 | 3.3
O=C(OC1=CC(=O)c2cccc3cccc1c23)c1ccccc1 | -0.1 | -3.3
CCOC(=O)/C(=N/O)C1=NN=C(N)SC1 | -1.4 | -7.2
C[C@@H]1CN([C@@H](C)CO)C(=O)c2cc(NC(=O)Cc3ccccc3)ccc2O[C@H]1CN(C)Cc1ccc(C(=O)O)cc1 | 0.4 | 0.5
COC(=O)C1=CO[C@@H](O[C@@H]2O[C@H](CO)[C@@H](O)[C@H](O)[C@H]2O)[C@@H]2[C@@](C)(O)[C@@H](OC(=O)/C=C/c3ccc(O)cc3)C[C@]12O | 0.5 | -3.6
CNC[C@H]1Oc2ccc(NS(=O)(=O)c3cccs3)cc2C(=O)N([C@@H](C)CO)C[C@@H]1C | 0.0 | 6.5
C[C@@H]1CN([C@H](C)CO)C(=O)c2cc(NC(=O)Nc3cccc4ccccc34)ccc2O[C@H]1CN(C)Cc1ccc(C(F)(F)F)cc1 | 0.1 | 0.5
Cc1ccc(S(=O)(=O)N(C)C[C@H]2Oc3c(NC(=O)c4ccc(-c5nccs5)cc4)cccc3C(=O)N([C@@H](C)CO)C[C@@H]2C)cc1 | . | -1.8

Rewritten with values under each structure: 3 of the compounds above
Results follow in this order: A1 inhib	BJeLR viab HTS
O=C(OC1=CC(=O)c2cccc3cccc1c23)c1ccccc1
    -0.1	-3.3
CCOC(=O)/C(=N/O)C1=NN=C(N)SC1
    -1.4	-7.2
C[C@@H]1CN([C@@H](C)CO)C(=O)c2cc(NC(=O)Cc3ccccc3)ccc2O[C@H]1CN(C)Cc1ccc(C(=O)O)cc1
    0.4	0.5

The list goes on:
SMILES | A1 inhib | BJeLR viab HTS
C[C@@H]1CN([C@@H](C)CO)C(=O)c2cccc(NC(=O)c3nc4ccccc4s3)c2O[C@H]1CN(C)CC1CCCCC1 | . | -0.8
COc1ccc(NC(=O)CC(=O)c2ccccc2)cc1 | -2.2 | -2.5
C[C@@H]1CN([C@H](C)CO)C(=O)c2cc(NS(C)(=O)=O)ccc2O[C@@H]1CN(C)S(=O)(=O)c1ccccc1 | -0.7 | 2.6
Cc1nn(-c2ccccc2)c2[nH]c(=O)c(C#N)c(-c3cccs3)c12 | 0.7 | -2.1
Cc1cc[n+](CCOc2ccc(N)cc2)cc1 | 0.7 | 0.6
Cn1nc(C(=O)N2CCCN(Cc3ccccc3Cl)C2)c2c1-c1ccccc1OC2 | -0.2 | -2.3
C[C@@H]1CN([C@@H](C)CO)C(=O)c2cccc(NC(=O)c3ccc(-c4nccs4)cc3)c2O[C@@H]1CN(C)S(=O)(=O)c1ccccc1 | . | -2.4
Cc1ccc(S(=O)(=O)Nc2ccc3c(c2)C(=O)N([C@@H](C)CO)C[C@@H](C)[C@H](CN(C)C(=O)Nc2ccc(F)cc2)O3)cc1 | -0.1 | -2.9
COc1cccc(C(=O)CCN2CCC(c3ccccc3)C2)c1 (stereo unspecified) | . | 0.1
NC(=O)CSc1nc2c(sc3ccccc32)c(=O)n1-c1ccccc1 | 0.2 | -1.3
CCSC(=S)NC1CCS(=O)(=O)C1 (stereo unspecified) | -0.4 | 1.3
CCC(C)NC(=O)C1c2ccccc2C(=O)N2CCc3ccccc3C12 (stereo unspecified) | . | 4.6
COC(=O)c1c(NC(=O)C(C)Oc2ccccc2)sc2c1-c1ccccc1CC2 (stereo unspecified) | -0.3 | 1.6
CCN(CC)C(=O)Cn1cc(SCC(=O)N2CCCCC2)c2ccccc21 | 0.1 | -0.2
C[C@@H]1CN([C@@H](C)CO)C(=O)c2cc(N(C)C)ccc2O[C@H]1CN(C)C(=O)Nc1cccc2ccccc12 | 0.1 | 8.1
C[C@H]1CN([C@@H](C)CO)C(=O)c2cccc(NS(=O)(=O)c3cn(C)cn3)c2O[C@@H]1CN(C)C(=O)Nc1ccc(F)cc1 | . | 8.8
Cc1cc(C)c(-n2c(O)c(C=Nc3cccc(O)c3)c(=O)[nH]c2=O)c(C)c1 | 0.6 | -1.8
COc1ccc(NC(=O)C2CCCCC2)cc1OC1CCCC1 | . | 2.8
CCOC(=O)Cn1c(=O)oc2cc(S(=O)(=O)N(C)CCC#N)ccc21 | . | -4.8
Cc1noc(C)c1NC(=O)N(C)C[C@@H]1Oc2ccc(NC(=O)CCCN(C)C)cc2C(=O)N([C@@H](C)CO)C[C@H]1C | -0.2 | 2.8
C[C@H](CO)N1C[C@H](C)[C@H](CN(C)Cc2ccc(Cl)c(Cl)c2)Oc2ccc(NS(=O)(=O)c3cn(C)cn3)cc2C1=O | 0.3 | 6.7
O=C1c2cccc3cccc(c23)N1Cc1ccc(F)cc1Cl | -1.5 | -2.4
Cc1c(C)c(C)c(S(=O)(=O)N=C(N)N)c(C)c1C | -0.2 | -1.8
C[C@H]1CN([C@@H](C)CO)C(=O)c2cccc(NS(=O)(=O)c3cccs3)c2O[C@@H]1CN(C)S(=O)(=O)c1cn(C)cn1 | . | 3.0
C[C@H](CO)N1C[C@H](C)[C@@H](CN(C)C(=O)Nc2ccccc2)Oc2c(NC(=O)C3CCOCC3)cccc2C1=O | . | -3.6
C[C@@H]1CN([C@H](C)CO)C(=O)c2cccc(NC(=O)c3nc4ccccc4s3)c2O[C@H]1CN(C)S(=O)(=O)c1cn(C)cn1 | . | -2.1
O=C(CSc1nnc(CNC(=O)c2cccs2)o1)NC1CCCC1 | . | 8.4
C[C@H]1CN([C@@H](C)CO)C(=O)c2cc(NC(=O)NC3CCCCC3)ccc2O[C@@H]1CN(C)Cc1ccccc1 | 0.8 | 0.7
CC1CCN(c2c(S(=O)(=O)c3ccccc3)cnc3ccccc23)CC1 | 0.1 | 1.9
COc1ccc(S(=O)(=O)N2CCCCC2C)cc1 (stereo unspecified) | 1.2 | -5.3
CCOC(=O)c1ccc(Nc2c(C(=O)OCC)cnc3ccccc23)cc1 | -1.1 | 3.7
COc1ccc(/C=C2\OC(=S)N(C)C2=O)cc1 | 1.1 | 0.4
C[C@@H]1CN([C@@H](C)CO)C(=O)c2cc(NC(=O)CCN3CCOCC3)ccc2O[C@@H]1CN(C)S(C)(=O)=O | -0.5 | 2.1
Cc1noc(C)c1S(=O)(=O)Nc1cccc2c1O[C@@H](CN(C)CC1CC1)[C@@H](C)CN([C@@H](C)CO)C2=O | . | 1.2
Cc1ccc(S(=O)(=O)Nc2ccc3c(c2)C(=O)N([C@H](C)CO)C[C@H](C)[C@H](CN(C)C)O3)cc1 | -0.3 | -2.7
CNC[C@H]1Oc2c(NS(=O)(=O)c3ccc(C)cc3)cccc2C(=O)N([C@H](C)CO)C[C@H]1C | . | 2.9
O=C(C1CC1(c1ccccc1)c1ccccc1)N1CCCCC1 (stereo unspecified) | -1.0 | 2.9
Cc1ccc2nc(C)nc(-c3ccccc3)c2c1 | 0.2 | 3.8
C[C@@H]1CN([C@@H](C)CO)C(=O)c2cccc(NC(=O)Nc3ccc4c(c3)OCO4)c2O[C@H]1CN(C)S(=O)(=O)c1ccc(Cl)cc1 | . | -0.8
C[C@H](CO)N1C[C@H](C)[C@@H](CN(C)C(=O)Nc2ccc(F)cc2)Oc2c(NC(=O)Nc3ccc(F)cc3)cccc2C1=O | . | -2.5
COc1ccc(S(=O)(=O)Nc2cccc3c2O[C@@H](CN(C)CC2CCCCC2)[C@@H](C)CN([C@@H](C)CO)C3=O)cc1 | . | 3.8
CCCCN(CC)C(=O)c1cc2c(-c3ccc(Cl)cc3)nn(C)c2s1 | . | 6.7
C[C@@H]1CN([C@@H](C)CO)C(=O)c2cccc(NS(=O)(=O)c3cccs3)c2O[C@@H]1CN(C)S(=O)(=O)c1ccc(F)cc1 | . | 1.4
C[C@@H]1CN([C@@H](C)CO)C(=O)c2cc(NC(=O)Nc3cccc4ccccc34)ccc2O[C@H]1CN(C)C(=O)Nc1cccc2ccccc12 | 0.6 | -5.7
O=C(c1ccccc1)c1cc[n+](Cc2ccccn2)cc1 | -1.2 | 13.3
Cc1noc(C)c1NC(=O)N(C)C[C@H]1Oc2c(NC(=O)c3nc4ccccc4s3)cccc2C(=O)N([C@H](C)CO)C[C@@H]1C | . | -6.0
COc1cccc2c1OC1(C)C(C(=O)Nc3ccc(C)cc3C)C2NC(=S)N1c1ccc(F)cc1 (stereo unspecified) | 0.7 | 3.8
C[C@@H]1CN([C@H](C)CO)C(=O)c2cccc(NC(=O)c3ccc(-c4nccs4)cc3)c2O[C@@H]1CN(C)C | . | 2.9
CNc1ccc(S(=O)(=O)c2ccc(NC)cc2)cc1 | 0.4 | 4.1
COc1ccc(NC(=O)CC(=O)Nc2ccc(OC)cc2)cc1 | -0.4 | -0.7
CSc1n[nH]c(NC(=O)c2ccccc2Cl)c1S(=O)(=O)c1ccc(Cl)cc1 | -1.4 | 2.4
Cc1cc(C(=O)Nc2cccc3c2O[C@H](CN(C)C(=O)Nc2ccc(C(F)(F)F)cc2)[C@@H](C)CN([C@@H](C)CO)C3=O)n(C)n1 | . | -0.7
O=C(CCSc1nnc2ccccn12)Nc1cccc(-c2nc3ccccc3s2)c1 | -5.2 | -1.5
C[C@H]1CN([C@@H](C)CO)C(=O)c2cccc(NC(=O)Nc3ccc(F)cc3)c2O[C@@H]1CN(C)Cc1ccncc1 | . | -0.8
Cc1c(CC(=O)Nc2ccc(Cl)cc2)sc2ccc(Cl)cc12 | 0.4 | -2.1
O=C(NC(Nc1cccc(C(F)(F)F)c1)C(=O)c1ccccc1)c1cccs1 (stereo unspecified) | 1.4 | 11.7
C[C@@H]1CN([C@@H](C)CO)C(=O)c2cc(NC(=O)Nc3ccc(C(F)(F)F)cc3)ccc2O[C@@H]1CN(C)Cc1ccccc1 | 0.9 | 3.6
O=C1CC(c2ccccc2)CC(O)=C1C=Nc1ccccc1 (stereo unspecified) | 0.0 | -3.8
C[C@@H]1CN([C@H](C)CO)C(=O)c2cccc(NC(=O)Nc3cccc4ccccc34)c2O[C@H]1CN(C)S(=O)(=O)c1ccccc1 | . | -5.0
NC(=O)c1ccccc1NC(=O)c1cccc(COc2ccc3c(c2)CCC3)c1 | 0.0 | -10.3
Carrying on.
SMILES | A1 inhib | BJeLR viab HTS
CCOc1ccccc1-n1c(N)c(C#N)c(N)c(C#N)c1=S | -0.5 | -2.3
O=c1oc2ccccc2c2c1ncn2CCN1CCCC1 | 0.2 | 5.8
C[C@H](CO)N1C[C@H](C)[C@@H](CN(C)C(=O)Nc2ccc(F)cc2)Oc2c(NC(=O)c3ccc(-c4nccs4)cc3)cccc2C1=O | . | 1.9
C[C@H](CO)N1C[C@H](C)[C@@H](CN(C)C(=O)Nc2ccc(F)cc2)Oc2c(NS(=O)(=O)c3cccs3)cccc2C1=O | . | 3.8
CC(C)CCNC(=O)c1cc(Sc2ccc(F)cc2)nc2ccccc12 | . | 3.0
O=C(CCCn1c(=O)[nH]c2cc(Cl)ccc2c1=O)NC1CCCCCCC1 | . | 0.8
C[C@H]1CN([C@@H](C)CO)C(=O)c2cccc(NC(=O)NC3CCCCC3)c2O[C@@H]1CN(C)Cc1ccc(Cl)c(Cl)c1 | . | -7.6
C[C@@H]1CN([C@H](C)CO)C(=O)c2cccc(NC(=O)C3CCCCC3)c2O[C@H]1CN(C)S(=O)(=O)c1cccs1 | . | 3.2
C[C@H]1CN([C@@H](C)CO)C(=O)c2cccc(NC(=O)c3nc4ccccc4s3)c2O[C@@H]1CN(C)S(=O)(=O)c1ccccc1 | . | 2.8
CNC[C@H]1Oc2ccc(NC(=O)Nc3ccc(OC)cc3)cc2C(=O)N([C@@H](C)CO)C[C@H]1C | -0.7 | 3.9
CC1C(=O)C(C)C(c2ccc(Br)cc2)NC1c1ccc(Br)cc1 (stereo unspecified) | . | -1.7

Reformatted as labelled records: entries from further up.
C[C@H]1CN([C@@H](C)CO)C(=O)c2cccc(NC(=O)c3nc4ccccc4s3)c2O[C@@H]1CN(C)S(=O)(=O)c1ccccc1
  A1 inhib: .	BJeLR viab HTS: 2.8
CNC[C@H]1Oc2ccc(NC(=O)Nc3ccc(OC)cc3)cc2C(=O)N([C@@H](C)CO)C[C@H]1C
  A1 inhib: -0.7	BJeLR viab HTS: 3.9
C[C@H](CO)N1C[C@H](C)[C@@H](CN(C)C(=O)Nc2ccc(F)cc2)Oc2c(NC(=O)c3ccc(-c4nccs4)cc3)cccc2C1=O
  A1 inhib: .	BJeLR viab HTS: 1.9
C[C@@H]1CN([C@H](C)CO)C(=O)c2cccc(NC(=O)C3CCCCC3)c2O[C@H]1CN(C)S(=O)(=O)c1cccs1
  A1 inhib: .	BJeLR viab HTS: 3.2
